Compound activity deposited in PubChem BioAssay by National Center for Advancing Translational Sciences (NCATS).
TRPML1 blocker: human mucolipin-1 channel inhibition; AID 624415; TRPML1-inducible cells, Ca2+ dye fluorescence, FDSS; stronger effect = lower value; inhibition of EC80 agonist-evoked calcium signal; 390,000 tested, 0.02% active; Q9GZU1; activity change, negative = inhibition, % (test concentration not listed); in the data active means activity change below about -50%; inconclusive means about -30% to -50%; inactive means above about -30%;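 also: stimulus is agonist 54-4 at its EC80 concentration; % is scaled to controls: 0 for no effect and ±100 for the full control effect; compound concentration not given in the record; the text of the record puts the active cut at -80%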
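TRPML1-DL cells, Tet-induced overnight (~16 h, 37 °C) at 1,500 cells/well, were loaded with Ca8 no-wash dye plus quencher for 45-90 min at room temperature. Compounds were pinned during FDSS kinetic reading; agonist 54-4 at EC80 (4 uM final) then added.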
D2 potentiator: human D2 receptor positive allosteric modulation | P14416 | DiscoveRx D2 beta-arrestin cells, luminescence, 90 min; 100% = 57 uM dopamine signal | potentiation, % (no concentration beside the values) | 360,000 tested, 0.23% active; active = potentiation of 50% or more; inconclusive = 30% to 50%; inactive = 30% or less;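 also: compound concentration not given in the record; tested on top of an EC20 dose of dopamine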
Target sequence (P14416 whole entry, looked up): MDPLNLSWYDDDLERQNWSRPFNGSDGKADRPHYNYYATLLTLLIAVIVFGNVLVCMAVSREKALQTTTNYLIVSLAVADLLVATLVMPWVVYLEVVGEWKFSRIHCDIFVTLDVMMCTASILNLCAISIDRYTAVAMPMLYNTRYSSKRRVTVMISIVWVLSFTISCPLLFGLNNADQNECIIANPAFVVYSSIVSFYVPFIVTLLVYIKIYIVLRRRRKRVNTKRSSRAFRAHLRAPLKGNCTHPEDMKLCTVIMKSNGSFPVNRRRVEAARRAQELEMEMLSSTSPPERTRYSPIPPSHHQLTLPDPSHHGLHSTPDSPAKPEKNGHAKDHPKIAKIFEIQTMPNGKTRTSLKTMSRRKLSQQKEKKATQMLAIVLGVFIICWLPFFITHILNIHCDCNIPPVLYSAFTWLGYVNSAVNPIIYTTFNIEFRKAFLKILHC
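D2 cells co-treated with compound plus 50 nM dopamine (EC20) for 90 min at 37 deg C to detect potentiation. Beta-arrestin recruitment was read as enzyme-fragment luminescence after 1 h at ambient temperature. Full response was set by 57 uM dopamine.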
PINK1 expr mod: PINK1 expression modulation. Potency, µM (titrated, usually from 76.6 µM), without a hit: at the top dose activation (PINK1 increase), actives largely listed as activators. 410,000 tested, 0.2% active. AID 624263. PINK1 immunofluorescence, high-content cytometry, 24 h; active = well fitted activation curve with a large enough effect; inconclusive = small, poorly fitted or top-dose-only effect; inactive = flat fitted curve, though single readings scatter; cell line not stated here;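 also: potency is read from the fitted curve at half-maximal effect; % of control where 0% means no effect; nearly all actives have a fitted effect of over 65% in size; a mitochondrial uncoupler was the plate control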
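Stable cell line treated 24 h with compounds at 5 concentrations (CCCP controls), then fixed and immunostained for PINK1 plus nuclear and cell stains; PINK1 immunofluorescence quantified by laser-scanning microplate cytometry.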
TRPML1 ag: human mucolipin-1 channel agonism | Q9GZU1 | TRPML1-expressing cells, Ca2+ dye fluorescence, FDSS; host cell line not named in the record; reference of the full effect not given here | activation, % (test concentration not listed) | 410,000 tested, 0.12% active | AID 624414; in the data active = activation above about 50%; inconclusive = about 30% to 50%; inactive = below about 30%; also: 0% is about no effect; the text of the record puts the active cut at 80%
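Cells: TRPML1-DL, 1X Tet inducer, ~16 h at 37 degrees C/5% CO2. Dye: ABD Ca8 no-wash + quencher, 45-90 min RT. Read: 10 s baseline, compound add, 110 s agonist phase; 54-4 EC80 (4uM final), 110 s antagonist phase.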
Six1-Eya2 inh: blocks human Six1 binding to Eya2 | AlphaScreen GST-Six1/His-Eya2 binding, biochemical; stronger effect = lower value; control for the full effect not named in the record | 360,000 tested, 0.56% active | activity change, % (concentration not given with the values); in the data active = activity change below about -65%; inconclusive = about -30% to -65%; inactive = above about -30%; also: % is scaled to controls: 0 for no effect and ±100 for the full control effect
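Homogeneous AlphaScreen proximity assay pairing GST-Six1 with His-tagged Eya2 (added as 5X mix: 250 nM and 500 nM) in 50 mM Tris pH 8.0, 300 mM NaCl, 1 mM TCEP. Glutathione donor and nickel acceptor beads; 1 h, 37 °C, dark.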
D2 agonist: human D2 receptor agonism in beta-arrestin assay; P14416; DiscoveRx PathHunter D2 beta-arrestin, luminescence, 90 min; 100% = 57 uM dopamine signal; activation, % (concentration not given with the values); 360,000 tested, 0.084% active; in the data active = activation above about 40%; inconclusive = about 15% to 40%; inactive = below about 15%; also: compound concentration not given in the record; the text of the record calls up to 30% inactive
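DiscoveRx PathHunter D2 beta-arrestin cells (2,100/well) attached overnight, then compound-stimulated 90 min at 37 C in HBSS/10 mM HEPES/0.1% Tween-20 buffer; beta-galactosidase complementation read by luminescence after 1 h at ambient temperature. Dopamine 57 uM final (EC100) as control.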
The depositor's hits bear a star; ? = inconclusive; . = no result given; [ ] = remark or other dose. Rows are unselected; 1% or so of the library scored in one or more.

SMILES	TRPML1 blocker	D2 potentiator	PINK1 expr mod	TRPML1 ag	Six1-Eya2 inh	D2 agonist
CCOc1ccc(-c2cnc3ccccc3n2)cc1	-1	6	0.9%	1.2	7	-0.4
O=C(CCn1nc(-c2ccccc2)ccc1=O)N1CCN(c2ccccc2)CC1	-17	-10	1.3%	1.5	2	-1.8
CCOC(=O)Nc1ccc2c(CN3C(=O)NC4(CCCC4)C3=O)cc(=O)oc2c1	2	16	4.9%	-1.0	6	-2.6
O=C(NCCN1CCOCC1)c1cccc(S(=O)(=O)N2CCCCCC2)c1	35	-12	-1.8%	0.2	6	1.5
CS(=O)(=O)NNC(=O)c1cc2cc3ccccc3nc2s1	-1	3	-1.5%	-0.2	-1	-1.0
CCc1nc2ccc(C(=O)N3CCN(S(=O)(=O)CC)CC3)cn2c1N(CCC(C)C)CCN(C)C	50	-18	-1.2%	-0.9	6	-4.6
C[C@@H]1CCCCO[C@H](CN(C)Cc2ccc(Cl)c(Cl)c2)[C@@H](C)CN([C@H](C)CO)C(=O)c2cc(N(C)C)ccc2O1	.	.	11%	.	-23	-0.3
CC(=O)c1ccc(NC(=O)c2ccccc2Sc2ncnc3sc(C)c(C)c23)cc1	8	-6	-2.1%	1.6	0	-4.1
CS(=O)(=O)c1ccc2nc(NC(=O)CCN3C(=O)c4ccccc4C3=O)sc2c1	14	-2	5.1%	-0.5	1	3.7
C#CC1(O)CCCC2C3CCC4CC(OC(C)=O)CCC4(C)C3C(=O)CC21C (configuration not stated)	0	-4	-0.7%	-0.2	6	-3.2
Cc1cc(N2CCOCC2)n2cc(-c3ccc(F)cc3)nc2n1	-29	0	-1.1%	-0.6	14	-0.3
CC(=O)Nc1ccc(NC(=O)C(=O)NCC(c2ccco2)N2CCc3ccccc3C2)cc1 (configuration not stated)	-9	11	?	0.5	-3	-2.4
Cc1cccc(C(=O)Nc2cc(S(=O)(=O)N3CCOCC3)ccc2N2CCCCC2)c1	7	-1	1.8%	3.6	-9	-1.3
O=C(NNC(=O)C1CC2CCC1C2)c1ccccc1 (configuration not stated)	-4	-5	1.6%	-0.1	0	-0.3
Cc1cccc(Cn2c(NCCO)nc3c2c(=O)n(C)c(=O)n3C)c1	9	-2	6.8%[38.3 µM]	0.3	-1	0.3
Cc1cc(C)c(S(=O)(=O)N2CCN(C(=O)N3CCOCC3)CC2)c(C)c1	-5	0	2.9%	-0.3	-1	-4.5
COc1cc(/C=N/NC(=O)C(=O)NCc2cccnc2)ccc1O	12	-16	-0.6%	0.1	7	-4.2
CC(C)CCNC(=O)CSc1nc2ccsc2c(=O)n1NC(=O)c1ccccc1	11	-7	25%[38.3 µM]	-0.8	-4	-4.1
CSc1nc2ccccc2n1C(=O)Oc1ccccc1	-3	-20	-0.1%	-0.6	-3	-5.0
CN(C)CCCNC(=O)C[C@H]1C[C@H](C(=O)N2CCCCC2)[C@@]2(C)c3[nH]c4ccc(Cl)cc4c3CCN2C1=O	14	.	5.0%	-0.3	-7	-1.4
CCC(C)(C)n1nnnc1C(c1cc2cccc(C)c2[nH]c1=O)N1CCCC1 (configuration not stated)	-1	-13	4.2%[38.3 µM]	0.3	-1	-1.3
C#Cc1cccc(C(=O)N2CCCC(C(=O)c3ccc(OC)cc3C)C2)c1 (configuration not stated)	23	-11	1.1%	1.3	-4	2.0
Cc1oc(-c2ccc(C(=O)NCc3ccccc3)cc2)nc1CS(=O)(=O)c1ccccc1	-14	.	5.3%	-1.0	.	.
CC(=O)c1cccc(NC(=O)COC(=O)CCC(=O)c2cccs2)c1	6	1	-0.4%	0.4	-2	11

Part of the list above in order of formula weight, highest first.
SMILES	TRPML1 blocker	D2 potentiator	PINK1 expr mod	TRPML1 ag	Six1-Eya2 inh	D2 agonist
C[C@@H]1CCCCO[C@H](CN(C)Cc2ccc(Cl)c(Cl)c2)[C@@H](C)CN([C@H](C)CO)C(=O)c2cc(N(C)C)ccc2O1	.	.	11%	.	-23	-0.3
CN(C)CCCNC(=O)C[C@H]1C[C@H](C(=O)N2CCCCC2)[C@@]2(C)c3[nH]c4ccc(Cl)cc4c3CCN2C1=O	14	.	5.0%	-0.3	-7	-1.4
CCc1nc2ccc(C(=O)N3CCN(S(=O)(=O)CC)CC3)cn2c1N(CCC(C)C)CCN(C)C	50	-18	-1.2%	-0.9	6	-4.6
Cc1oc(-c2ccc(C(=O)NCc3ccccc3)cc2)nc1CS(=O)(=O)c1ccccc1	-14	.	5.3%	-1.0	.	.
CC(=O)c1ccc(NC(=O)c2ccccc2Sc2ncnc3sc(C)c(C)c23)cc1	8	-6	-2.1%	1.6	0	-4.1
CC(C)CCNC(=O)CSc1nc2ccsc2c(=O)n1NC(=O)c1ccccc1	11	-7	25%[38.3 µM]	-0.8	-4	-4.1
CS(=O)(=O)c1ccc2nc(NC(=O)CCN3C(=O)c4ccccc4C3=O)sc2c1	14	-2	5.1%	-0.5	1	3.7
C#CC1(O)CCCC2C3CCC4CC(OC(C)=O)CCC4(C)C3C(=O)CC21C (configuration not stated)	0	-4	-0.7%	-0.2	6	-3.2
Cc1cc(C)c(S(=O)(=O)N2CCN(C(=O)N3CCOCC3)CC2)c(C)c1	-5	0	2.9%	-0.3	-1	-4.5
CCC(C)(C)n1nnnc1C(c1cc2cccc(C)c2[nH]c1=O)N1CCCC1 (configuration not stated)	-1	-13	4.2%[38.3 µM]	0.3	-1	-1.3
C#Cc1cccc(C(=O)N2CCCC(C(=O)c3ccc(OC)cc3C)C2)c1 (configuration not stated)	23	-11	1.1%	1.3	-4	2.0
CC(=O)c1cccc(NC(=O)COC(=O)CCC(=O)c2cccs2)c1	6	1	-0.4%	0.4	-2	11
Cc1cccc(Cn2c(NCCO)nc3c2c(=O)n(C)c(=O)n3C)c1	9	-2	6.8%[38.3 µM]	0.3	-1	0.3
COc1cc(/C=N/NC(=O)C(=O)NCc2cccnc2)ccc1O	12	-16	-0.6%	0.1	7	-4.2
Cc1cc(N2CCOCC2)n2cc(-c3ccc(F)cc3)nc2n1	-29	0	-1.1%	-0.6	14	-0.3
CSc1nc2ccccc2n1C(=O)Oc1ccccc1	-3	-20	-0.1%	-0.6	-3	-5.0

Next records follow:
SMILES	TRPML1 blocker	D2 potentiator	PINK1 expr mod	TRPML1 ag	Six1-Eya2 inh	D2 agonist
O=S(=O)(Cc1cc(NCc2ccccc2)nc(-c2ccccn2)n1)c1ccccc1	-10	-4	5.4%	2.1	-7	-7.0
Cc1onc(-c2ccccc2Cl)c1C(=O)NCc1nc(-c2ccc(C(F)(F)F)cc2)no1	-9	-3	7.3%	1.8	-1	-2.4
COc1ccc(CCNC(=O)c2csc3c2CCCC3)cc1OC	-5	-5	2.9%	-0.4	-4	-3.5
O=C(Cc1cccs1)Nc1cccc(-c2nnc(-c3ccco3)o2)c1	20	6	-0.2%	1.2	-4	-0.5
S=c1[nH]nc(-c2ccco2)n1/N=C/c1cccc(Cl)c1	-4	-14	3.2%	-0.1	-18	-0.9
Cc1ccc(C(=O)NCC(=O)OCc2nnc(-c3ccc([N+](=O)[O-])cc3)o2)cc1	4	24	-0.5%	-1.4	-8	4.0
O=C(Nc1ccccc1)N1CCN(Cc2ccc3c(c2)OCO3)CC1	-5	-1	1.0%	-0.2	0	1.1
CCOC(=O)C1CCCN(c2ncnc3c2oc2ccccc23)C1 (configuration not stated)	3	?	-1.9%	1.4	1	2.0
O=C(CN(C(=O)CCC(=O)Nc1nccs1)c1cccc(F)c1)NCc1ccc2c(c1)OCO2	51	-5	19%	2.8	-11	-3.5
CCOC(=O)c1ccc(NC(=O)CSc2nnnn2CCCO)cc1	-10	-7	-3.9%[38.3 µM]	-0.8	-1	0.7
CC(OC(=O)/C=C/c1ccc2ccccc2n1)C(=O)N(C)c1ccccc1 (configuration not stated)	2	-1	0.9%	1.8	0	?
COc1ccc(C)cc1NC(=O)NCc1ccccn1	8	-5	-0.2%	0.2	-2	-0.2
CCN(Cc1ccccc1)C(=O)C1CCN(Cc2ccc(OC)c(OC)c2OC)CC1	-9	-11	20%[38.3 µM]	-0.8	1	-3.2
CC(=O)Nc1nonc1-c1nnc(SCc2ccccc2C)n1C	-5	.	-0.1%	0.5	.	.
